# NPYLR7 ag – mosquito NPYLR7 agonism. 270,000 tested, 0.15% active. activation, % at 10 µM. HEK293T NPYLR7/Galpha15, GCaMP6s calcium fluorescence; in the data active means activation above about 40%;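 further: 0% = vehicle and 100% = reference agonist at the receptor; some compounds past the cut are filed as inactive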
# NPYLR7 ag max-min – also measured in NPYLR7 ag; calls as there; activation, %; measured here: Max-Min RFU normalised activation; some inactives read as strong as hits;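 span of the calcium signal over five minutes; 0% = vehicle and 100% = native peptide agonist; compound fluorescence can raise it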
# Active calls of the source: *; & = joins results of further samples. A portion of the library; rates above refer to the full screens.
Molecule | NPYLR7 ag max-min | NPYLR7 ag
CCSc1nc(CC(=O)N[C@@H]2C[C@H]2c2ccccc2)cs1 | -3 | 0
CCOC(CNC(=O)C(=O)NCC(c1ccco1)N1CCN(c2ccc(OC)cc2)CC1)OCC (centres undefined) | 7 | 11
CC(C)(C(=O)N1CCC1(C)C(=O)NS(=O)(=O)c1ccc(Cl)s1)c1ccccc1 (centres undefined) | 2 | 6
O=C(NCc1ccco1)c1cc(-c2cccs2)on1 | 2 | 1
CC(C)n1c(=O)c2oc3ccccc3c2n(Cc2ccc(Cl)cc2)c1=O | 6 | -1
COC(=O)[C@@H]1C[C@@H](NC(=O)c2cccc(C#CC(C)(C)O)c2)CN1C | 5 | -3
CCOC(=O)C1CCN(C(=O)C2CCN(c3c(C#N)cnc4cc(OC)c(OC)cc34)CC2)CC1 | -11 | -9
CCOc1cccc(/C=c2\sc3nc(/C=C/c4ccccc4)nn3c2=O)c1 | 11 | 8
COc1ccc(-c2cc(C(=O)N3CCN(C(C)=O)CC3)n3nc(-c4ccc(Cl)cc4)cc3n2)cc1 | 14 | 2
CN(C)CCN1C(=O)C(=O)C(=C(O)c2ccc(F)cc2)C1c1ccc(Cl)c(Cl)c1 (centres undefined) | -10 | -6
CNC(=O)NC(=O)COc1c(Cl)cccc1Cl | -2 | 1
Cc1ccc(F)c(Oc2cc(N3CCN(C(=O)c4ccccc4C)CC3)ncn2)c1 | -3 | -4
CC(C)Cc1nc(-c2cccc(N3CCNC3=O)c2)n(-c2ccccn2)n1 | 4 | 5
Cc1ccn2cc(-c3ccc(NS(=O)(=O)c4ccccc4)cc3)nc2n1 | 2 | 3
COc1ccc(C(CC#N)C2CCOC(C)(C)C2)cc1 (centres undefined) | -2 | -1

# A run of entries of the results above, for reference:
Molecule | NPYLR7 ag max-min | NPYLR7 ag
CNC(=O)NC(=O)COc1c(Cl)cccc1Cl | -2 | 1
Cc1ccc(F)c(Oc2cc(N3CCN(C(=O)c4ccccc4C)CC3)ncn2)c1 | -3 | -4
CC(C)Cc1nc(-c2cccc(N3CCNC3=O)c2)n(-c2ccccn2)n1 | 4 | 5
Cc1ccn2cc(-c3ccc(NS(=O)(=O)c4ccccc4)cc3)nc2n1 | 2 | 3
COc1ccc(C(CC#N)C2CCOC(C)(C)C2)cc1 (centres undefined) | -2 | -1

# Other results follow.
Molecule | NPYLR7 ag max-min | NPYLR7 ag
CN(C(=O)c1sc2ccccc2c1Cl)C1CCS(=O)(=O)C1 (centres undefined) | 6 | 12
Cc1ccc(CN(C)C(=O)C2CCN(S(=O)(=O)c3cc(C(N)=O)n(C)c3)CC2)c(C)c1 | 5 | 1
CCC1CCCCN1Cc1nc2c(c(=O)n(C)c(=O)n2C)n1CCOC (centres undefined) | 0 | 4
Nc1cc(N2CC[C@H](CO)[C@H](O)C2)nc(N2CCCC2)n1 | 11 | 19
Cc1cc2cc(CNC(=O)/C=C\c3ccc4c(c3)OCO4)ccc2n1C | 4 | 4
CN(C)N=CC=C1CCCC(=CC=NN(C)C)C1=O | -6 | -4
CN(C)c1ccc(CNC(=O)CNC(=O)c2ccccc2Br)cc1 | 13 | 14
CN1CCN(c2ccc(CNC(=O)C3(C)Cc4c(-c5ccc(C(N)=O)cc5)ccnc4O3)cc2)CC1 (centres undefined) | -15 | -16
CCC(C(=O)N1CCN(C(C(=O)NCCCN2CCOCC2)C2CCCC2)CC1)c1ccccc1 (centres undefined) | 7 | -2
Cc1nnc(C(C)Nc2ccc3c(c2)OCCO3)o1 (centres undefined) | 3 | 4
O=C(Cn1cnc2c(nnn2Cc2ccccc2F)c1=O)OCc1ccccc1 | -1 | -3
CN(Cc1nc2ccccc2n1C)C(=O)c1ncn[nH]1 | 9 | 10
Cc1ccc(-c2nc(Nc3ncccn3)n[nH]2)cc1 | 2 | 4
CCN(CCn1cccn1)C(=O)c1ccc(OC2CCN(C(=O)C3CC3)CC2)cc1 | 7 | 19
C=CCNc1nc(N)c(C(=O)c2ccc(Cl)s2)s1 | 1 | 4
Cc1cc(C)nc(SCc2c(C(=O)NCC(C)C)nnn2-c2ccccc2)n1 | -9 | -6
COc1cc(OC)cc(C(=O)NCC2CCCN(C(=O)CCC3(C)CC3)C2)c1 (centres undefined) | 2 | 9
CC(C)CCn1c(NCc2ccccc2)nc2c1c(=O)[nH]c(=O)n2C | -1 | 2
CC(C)C[C@H]1C[C@@H](NC(=O)c2ccccc2)C[C@@H](c2nccs2)O1 | -2 | -1
CC(=O)N(C)c1ccccc1C(=O)NCc1ccco1 | 4 | 11
CC(C)NC(=O)c1ccc2sc([C@@H]3O[C@H](CO)[C@H](O)[C@H](O)[C@H]3O)nc2c1 | 4 | 9
O=C1c2ccccc2C(=O)N1CCCCN(C(=O)c1cccs1)c1ccc(Cl)cc1 | -2 | 2
CCc1ccc(S(=O)(=O)N(C)c2cccc(OC)n2)cc1 | 1 | 1
Cc1nc2n(n1)C(=O)C(C(c1cccs1)N1CCC(C)CC1)S2 (centres undefined) | -2 | 0
Cc1cccc(NC(=O)CC2S/C(=N/N=C\c3ccccc3)NC2=O)c1C (centres undefined) | 9 | 9
C=C1C2(C(=O)Nc3ncc(Cl)cc3Cl)CCC(C2)C1(C)C (centres undefined) | -2 | -1
NC(=O)CC1Sc2ccccc2NC1=O (centres undefined) | 5 | 2
CC(C)(C)c1ccc(-c2csc(N=CC(C#N)C#N)n2)cc1 | -1 | 0
O=C(N1CCc2ccccc2C1)N1c2ccccc2Sc2ccccc21 | 30 | 18
COc1ccc(-c2cnnc(N3CCCC3c3ccccc3OC)n2)cc1 (centres undefined) | 0 | 2

# An excerpt from above in order of formula weight, low to high:
Molecule | NPYLR7 ag max-min | NPYLR7 ag
Cc1cccc(NC(=O)CC2S/C(=N/N=C\c3ccccc3)NC2=O)c1C (centres undefined) | 9 | 9
CC(C)NC(=O)c1ccc2sc([C@@H]3O[C@H](CO)[C@H](O)[C@H](O)[C@H]3O)nc2c1 | 4 | 9
Cc1cc(C)nc(SCc2c(C(=O)NCC(C)C)nnn2-c2ccccc2)n1 | -9 | -6
O=C1c2ccccc2C(=O)N1CCCCN(C(=O)c1cccs1)c1ccc(Cl)cc1 | -2 | 2
CCOC(=O)C1CCN(C(=O)C2CCN(c3c(C#N)cnc4cc(OC)c(OC)cc34)CC2)CC1 | -11 | -9

# Further entries.
Molecule | NPYLR7 ag max-min | NPYLR7 ag
NC(=O)C1CC(C(=O)OC2CCCCCCC2)=NN1c1ccccc1 (centres undefined) | -2 | 1
OCC1(CC2CCCCO2)CCN(Cc2cc3ccccc3o2)CC1 (centres undefined) | 1 | 10
CCOc1ccccc1-n1c(=O)[nH]c2c(C(N)=O)nc(-c3cccc(OCC)c3O)nc21 | 7 | 14
COc1cccc(-n2nnc3c(SCC(=O)NC4CCCC4)ncnc32)c1 | 16 | 15
COCCn1c(SCc2ccc(Cl)s2)nc(C)c1C | 5 | 5
O=C(CNC(=O)c1cccs1)NCc1ccco1 | 14 | 24
CCC(NC(=O)Cn1cc(NC(=O)Cc2ccccc2OC)cn1)c1cccs1 (centres undefined) | -1 | 3
CNC(=O)CNC(=O)N1C[C@H](C(=O)NC)[C@H]2c3ccccc3N(CCOC)C(=O)[C@]21C | 22 | 21
COc1cccc(-c2nc(OC)nn2-c2cccc(NC(=O)C3CCC3)c2)c1 | 23 | 13
COCC(=O)Nc1ccc(N(C)C)c(CN(C(=O)c2cccc(F)c2)C(C)c2ccccc2)c1 (centres undefined) | 16 | 9
CCOC(=O)c1[nH]c(COC(C)=O)c(CC)c1C | 2 | -1
CN(C)CCNC(=O)c1cc(-c2ccc(F)cc2)nc2cc(-c3ccccc3)nn12 | 9 | 7
COc1ccc(-c2cccc(-c3ccc(NC(=O)c4ccc(F)cc4C(F)(F)F)cc3)n2)cc1 | 33 | 26
Cc1nsc(NC(=O)NC2CCc3ccccc3C2)n1 (centres undefined) | 1 | 3
CCOCC(O)COc1ccc(NC(=O)CC[S+](C)C)cc1 (centres undefined) | -11&-8 | -7&-4
Cn1cc(S(=O)(=O)NCCc2ccccc2)c(=O)n(C)c1=O | 0 | 1
COc1cc(OC)cc(C(=O)Nc2c(C)nc3cc(C)ccn3c2=O)c1 | 0 | 1
CCn1ccnc1COc1c(OC)cc(C)cc1OC | -4 | -2
COc1cccc(C(=O)N2CCc3ccccc3C2c2ccc(C)cc2)c1 (centres undefined) | -2 | 2
CCC(C)N(Cc1cc(NC(=O)c2ccccc2Cl)ccc1N(C)C)C(=O)NC(C)(C)C (centres undefined) | 4 | -5
Cc1oc2nc[nH]c(=O)c2c1C(=O)OC(C)C(=O)N1CCOCC1 (centres undefined) | 11 | 5
N#Cc1ccc(C(=O)N2CCN(Cc3ccco3)CC2)cc1 | 0 | 5
CCc1nc2ccc(C(=O)NCCN3CCNC3=O)cn2c1N(CC)Cc1cccc(Br)c1 | 11 | 18
Cc1cccc(C2(C(=O)N(C)CC(N)=O)CCCC2)c1 | 8 | 20
Cc1cc(NC(=O)CN2CCC(C(N)=O)CC2)nc2c1c(=O)oc1ccccc12 | -1 | 1
COCCN(CCC(=O)NCc1ccccc1)c1nc(-c2ccccc2)nc2ccccc12 | 17 | 17
Cn1ccnc1C(NC(=O)COc1ccc(Br)cc1)c1ccccc1 (centres undefined) | 3 | 4
Cc1ccccc1NC(=O)CC(=O)N1C[C@H](OC(C)C)[C@@H](O)C1 | -2 | -1
COC(=O)c1cccc(CN2CCC(c3ccncc3)CC2)n1 | 2 | 4
Brc1ccc(/C=C/CCn2cncn2)cc1 | -5 | -3
Cc1cnc(SCCN2CCOCC2)nc1C1CCCN(C(=O)Cc2ccc3c(c2)OCO3)C1 (centres undefined) | 9 | 20
CS(=O)(=O)N(Cc1cc2ccccc2[nH]c1=O)c1ccccc1 | 2 | 3
CCOC(=O)NCCC(=O)Nc1ccc(SC)cc1 | 0 | 4
CN(C)S(=O)(=O)c1cccc(C(=O)Nc2cc(F)cc(F)c2)c1 | -1 | -1
CN1C(=O)C=C(Nc2cccc(OCCO)c2)C1=O | 7 | 5
CC(C)c1cccc(C(C)C)c1NC(=O)Nc1ccc(N2CCCC2)c(C(=O)NCc2ccccc2)c1 | 4 | 6
O=C(O)CC[n+]1c(CC=Nc2ccccc2)oc2ccccc21 | 7 | 7
Cc1nnc(SCC(=O)NC(=O)NC(C)C)s1 | 1 | 1
COCCCN1C(=O)NC(Cc2cccc(F)c2)(C2CCNCC2)C1=O (centres undefined) | -2 | 13
O=C(NCc1ccc(C(F)(F)F)cc1)c1ccc(-c2ccc3c(c2)OCO3)s1 | -2 | 3
c1ccc(-c2noc3c2CN(Cc2nnc(-c4cccnc4)o2)CC3)cc1 | -3 | 7
CCCc1nnc(-c2cc3ccccc3n2C)o1 | -3 | -3
C#CCn1c(=NC(=O)c2nn(C)cc2C)sc2c(OC)ccc(OC)c21 | 8 | 2
O=C(c1ccccc1N1CCS(=O)(=O)CC1)N1CCC2(CCCO2)CC1 | 9 | 21
Cc1ccc2cc(C3(O)CCN(C(=O)c4sccc4N)CC3)ccc2n1 | 4 | 6
Cc1cc(NC(=O)CN2CC=C(n3c(=O)[nH]c4ccccc43)CC2)nn1-c1ccccc1 | -10 | -7
CCOc1ccccc1C(=O)Nn1cnc2c(cnn2-c2ccc(C)c(C)c2)c1=O | 0 | 5
Cc1[nH]nc2c1C(c1ccc3ccccc3c1)CC(=O)N2 (centres undefined) | 8 | 9
Cc1ccc(N2CCN(C(=O)c3ccc(Br)cc3)C(C)C2=O)cc1C (centres undefined) | 8 | -2
O=C1O[C@@H]2CN(c3nnnn3-c3ccccc3)C[C@@H]2N1Cc1ccccn1 | 1 | -2
COCCNCC(=O)N(CCc1ccc(OC)c(OC)c1)Cc1sccc1C | 9 | 10
CC1CCN(S(=O)(=O)NC(C)c2ccc(F)cc2)CC1 (centres undefined) | -5 | -5
Cc1nc(CCn2ccnc2-c2c(C)n(C)n(-c3ccccc3)c2=O)sc1C | 26 | 47
CCc1nc2c(OCc3cc(Cl)cc(Cl)c3)cccn2c1N(C)C(=O)c1ccc(C)cc1 | 11 | 2
O=C(CC1COCCN1)NCCCn1ccnc1 (centres undefined) | -6 | -6
Cn1c(NC(=O)c2cc(Cl)ccc2Cl)cc(=O)n(C)c1=O | 5 | 0
CC(=O)N1N=C(c2c(-c3ccccc3)c3ccc(C)cc3[nH]c2=O)CC1c1ccco1 (centres undefined) | 8 | 8
Cc1c(CN(C)C2CC(C)(C)NC(C)(C)C2)c(=O)n(-c2ccccc2)n1C | 9 | 25
CC(C)CN(CC(=O)Nc1nc(CC(=O)NCc2ccco2)cs1)C(=O)c1ccc(Cl)cc1 | 15 | 14
O=C(Nc1ccc(Br)cc1Cl)N1CC(=O)N2CCc3ccc(Cl)cc3C2C1 (centres undefined) | 19 | 33

# Going on with the list:
Molecule | NPYLR7 ag max-min | NPYLR7 ag
COc1ccc(OCC(=O)N2CCOC(COc3cccc(C(F)(F)F)c3)C2)cc1 (centres undefined) | 19 | 25
O=C(CCCCCN1C(=O)C2C3C=CC(C3)C2C1=O)Nc1nccs1 (centres undefined) | -6 | -2
COCCN(CCC(=O)NCCN1CCOCC1)c1nc(-c2ccccc2)nc2ccccc12 | 12 | 4
CSc1ccc(CN2C(=O)C(C)Sc3ccc(C(C)=O)cc32)cc1 (centres undefined) | -8 | -5
Cc1cc(C)n(-c2ccc(C(F)(F)F)cc2NC(=O)C2CCOC2)n1 (centres undefined) | 1 | 5
CCCCOc1ccc(C(=O)Nc2cccc(C3SCC(=O)N3c3ccc(C)cc3C)c2)cc1 (centres undefined) | 13 | 7
CC(=O)Nc1nc(COc2ccc(C)cn2)cs1 | -8 | -8
Cn1cc(S(=O)(=O)N2CCCC2)cc1C(=O)Nc1ccc(F)cc1 | 2 | 10
O=C(Nc1ccc2c(c1)OCO2)C1CCN(C(=O)CSc2ccc(F)cc2)CC1 | 10 | 17
C/C=C(\C)C(=O)NCc1cccc(-c2ncc(-c3cc(OC)ccc3OC)[nH]2)c1 | 7 | -1
CCCCn1c(O)c(N=NC(=O)c2ccco2)c2ccccc21 | -12 | -6
COCCn1c(CN2CCOCC2)nc2c1c(=O)[nH]c(=O)n2C | 11 | 15
COc1cc(OC)c(OC)cc1C=CC(=O)N1CCCC1c1nc2ccccc2s1 (centres undefined) | 2 | 5
CCc1ccc(C2CC(c3ccc(Br)cc3)=Nc3nnnn32)cc1 (centres undefined) | 4 | 5
CC(C)Cn1cnc2c(-c3cccc(F)c3)csc2c1=O | -4 | -2

# Compound activity (PubChem BioAssay)
